Vif A3G – HIV-1 Vif–A3G interaction blockers – biochemical, TR-FRET, GST-Vif 1-94, biotin-A3G peptide, dose response retest, primary screen (AID 1117319); 260,000 compounds, 0.57% hits; inhibition, %; hits with a dose series show IC50 in µM; TR-FRET GST-Vif / biotin-A3G peptide binding; higher % means a stronger effect; test concentration not given here; strong numbers were not always called active;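 active = above the screen mean plus three standard deviations and confirmed in dose response; inconclusive = results disagree or hit not tested in dose response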;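 note: Vif residues 1-94 fused to GST binding biotinylated APOBEC3G peptide 110-148; 0% = full assay without inhibitor and 100% = GST in place of GST-Vif; retest series ran down from 100 µM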
Beta cell apopt – blocks beta cell apoptosis. protection from apoptosis, % (concentration not given with the values). 300,000 compounds, 0.8% hits. INS-1E cytokine-induced death, ATP luminescence, 48 h; percent of positive-control rescue, neutral wells zero;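 active = all replicates at 75% or more, or half of them and the mean; inconclusive = half reach 75% but not the mean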;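 note: 0% = cytokine-treated negative control wells and 100% = positive control rescue; higher means more ATP so stronger rescue from cytokine killing; wells of about 40 µL received 100 nL stock; the first replicate is given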
Calb FLC – C. albicans growth modulation with fluconazole; growth inhibition, % (no concentration beside the values); C. albicans CaCi-2 (fluconazole-resistant clinical isolate) + fluconazole, Alamar Blue growth, 48 h; AID 1979; 300,000 compounds, 0.57% hits;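 active = most replicates above 75%; inconclusive = exactly half above 75%; inactive = most below 75%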;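 note: all wells also contain fluconazole at 8 µg/ml as a sub-toxic cotreatment; 0% = median of DMSO wells and 100% = median of geldanamycin control wells; wells of about 8 µL received 7.5 nL stock; the first replicate is given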
LANA-H2A inh – blocks KSHV LANA binding to histone H2A/H2B; AID 2629; inhibition, % (concentration not given with the values); 320,000 compounds, 0.6% hits; cell-free LANA-H2A/H2B peptide, fluorescence polarization; Q9QR71; in the data active = inhibition mostly above about 10%, no sharp cut-off; inactive = mostly below about 6.7%;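 note: stock transfer was 7.5 nL into about 10 µL; 0% = median of vehicle wells and 100% = median of positive control wells; one replicate is shown; the record names a cut of 25% in any replicate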
T cruzi repl – blocks replication of Trypanosoma cruzi; AID 1885; 300,000 compounds, 1.4% hits; inhibition, % (test concentration not listed); T. cruzi beta-gal in NIH3T3, luminescence, 90 h;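 active = mean inhibition across valid replicates above about 55%, limit read from the data; inconclusive = mean below that limit but half or more replicates reach it; inactive = mean below it, under half of replicates reach it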;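 note: signal also drops with host cell toxicity which is not excluded here; 0% = plate median of DMSO wells and 100% = zero luminescence signal; higher percent means less beta-gal luminescence so fewer parasites; stock transfer was 50 nL into about 50 µL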
MLL AF4-AF9 inh – blocks AF4 peptide binding to human AF9 | 350,000 compounds, 0.47% hits | inhibition, % at 10 µM | AlphaScreen, biotin-AF4 peptide binding to FLAG-AF9 | P42568;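 active = every replicate reaching a set inhibition limit, whatever the replicate mean, cut at about 25% in these data; inconclusive = mean inhibition reaches that limit but some replicates miss it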;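 note: 0% = plate neutral control median and 100% = total signal loss; the record names both 10 and 1 µM as test concentration; the first replicate is given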
Target sequence (P42568 whole entry, looked up): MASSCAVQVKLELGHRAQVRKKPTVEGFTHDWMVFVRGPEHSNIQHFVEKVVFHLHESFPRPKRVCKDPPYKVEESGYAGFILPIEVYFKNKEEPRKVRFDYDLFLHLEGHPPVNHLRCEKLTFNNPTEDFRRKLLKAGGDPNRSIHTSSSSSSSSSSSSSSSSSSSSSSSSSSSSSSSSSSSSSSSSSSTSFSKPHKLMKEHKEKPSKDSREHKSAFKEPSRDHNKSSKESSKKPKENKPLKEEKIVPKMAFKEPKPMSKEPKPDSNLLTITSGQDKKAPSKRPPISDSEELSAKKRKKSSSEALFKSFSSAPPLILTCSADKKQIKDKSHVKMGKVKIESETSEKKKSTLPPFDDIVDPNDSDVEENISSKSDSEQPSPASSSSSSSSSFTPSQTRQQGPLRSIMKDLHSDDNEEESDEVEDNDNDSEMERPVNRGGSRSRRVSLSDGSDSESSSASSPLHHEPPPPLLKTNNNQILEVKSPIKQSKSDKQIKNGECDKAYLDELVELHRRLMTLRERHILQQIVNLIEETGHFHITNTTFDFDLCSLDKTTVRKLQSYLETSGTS
RanGTP-Imp inh – inhibitors of RanGTP-importin-beta interaction, primary screen, biochemical, FRET, CFP-Ran, YFP-importin-beta, homogeneous; cell-free CFP-Ran/YFP-importin-beta FRET ratio; inhibition, % (concentration not given with the values); 300,000 compounds, 1.1% hits;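 active = most replicates above 15%; inconclusive = exactly half above 15%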;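 note: 0% = DMSO wells and 100% = Ran loaded with GDP instead of GTP; wells of about 40 µL received 100 nL stock; the first replicate is given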
Bfl-1 A1 inh – inhibitors of the anti-apoptotic protein A1, read as caspase activation; MEF A1-2A-BIM cells, Caspase-Glo 3/7 luminescence, 3 h; percent of clofoctol response, vehicle zero; caspase activation, % (test concentration not listed); 330,000 compounds, 0.066% hits; AID 2462;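 active = over half of replicate activation scores above 10%, or exactly half above 10 with the replicate mean above 10; inconclusive = replicate mean below 10 yet half the replicates above 10; inactive = over half of replicates below 10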;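 note: wells of about 30 µL received 50 nL stock; many hits fall short of the cut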
Numbers without * were called inactive; ? = inconclusive; . = not tested or not shown.

[1] CCCS(=O)(=O)N1CCCC(C(=O)NCCN(C)Cc2ccccc2)C1 (stereo not given)
[2] CCOC(=O)C1=C(C)Nc2nc3ccccc3n2C1c1cccs1 (stereo not given)
[3] O=C(/C=C/c1ccc(OCCCF)cc1)NCc1ccc(Cl)c(Cl)c1
[4] CCN(CC)CCNC(=O)CCc1c(C)nc2c(c(C)nn2-c2ccc(C)c(C)c2)c1C
[5] CC(C)(C)C(=O)CSc1ccc(S(=O)(=O)N2CCCC2)cn1
[6] CCN(CC)S(=O)(=O)c1ccc(N/N=C/c2ccc(OC)c(OC)c2OC)nc1
[7] COc1cccc(CNC(=O)C(=O)NCCC2CCCCN2S(=O)(=O)c2cccs2)c1 (stereo not given)
[8] COc1ccc2c(c1)OC(O)(C(F)(F)F)CC2=O (stereo not given)
Assay by compound,1,2,3,4,5,6,7,8
Bfl-1 A1 inh,0.4,1.1,-0.4,-0.3,-0.2,-0.1,-0.3,-0.1
Beta cell apopt,-3,-5,4,13,5,9,5,0
Calb FLC,-7,8,-1,1,.,-10,2,-12
RanGTP-Imp inh,0.8,-0.7,6.0,4.3,.,-0.7,3.0,?
LANA-H2A inh,-4.2,0.7,-1.8,3.0,0.2,-2.7,.,3.2
Vif A3G,6%,.,28%,0%,.,24%,2%,-4%
T cruzi repl,22,26,3,9,.,19,13,-11
MLL AF4-AF9 inh,.,7.9,.,6.7,0.4,-0.7,-13,.

[9] O=C(Nc1ccc(Nc2ccccc2)cc1)c1ccccc1
[10] CCN(CC)c1ccc(NC2CC(=O)N(CCc3ccc(OC)cc3)C2=O)cc1 (stereo not given)
[11] CC(C)CN1C2CCCC1CC(NC(=O)c1ccc([N+](=O)[O-])cc1)C2 (stereo not given)
[12] CN(C)c1ccc(N=Nc2cccc(F)c2)cc1
[13] O=C(CCNS(=O)(=O)c1ccc(Cl)cc1)N1CCOCC1
[14] COc1ccc(C(=O)C2CCCN(Cc3cn[nH]c3-c3ccc(F)cc3)C2)cc1OC (stereo not given)
[15] CC(=O)Nc1nnc(-c2c(-c3ccccc3Cl)noc2C)o1
[16] COc1ccc(NC(=O)N2CCC(C(=O)c3ccc(F)cc3)CC2)cc1
Assay by compound,9,10,11,12,13,14,15,16
Bfl-1 A1 inh,-1.7,0.5,0.1,-2.5,-0.1,1.4,-0.7,0.8
Beta cell apopt,4,5,.,6,1,-2,-6,5
Calb FLC,-8,-4,-1,-20,-1,-2,0,-17
RanGTP-Imp inh,2.8,-3.6,2.3,-3.5,?,-0.4,-1.3,-3.4
LANA-H2A inh,1.1,-2.7,1.4,-4.1,1.6,5.5,-8.8,-2.4
Vif A3G,.,7µM*,-1%,.,.,2%,0%,-1%
T cruzi repl,16,11,4,.,-2,5,-7,20
MLL AF4-AF9 inh,2.9,2.3,2.3,14,-2.1,2.7,.,.

[17] Cc1ccc(S(=O)(=O)NCCCCCC(=O)Nc2ccccc2)cc1
[18] NC(=O)C1CCN(C(=O)COc2ccc3ccccc3c2Br)CC1
[19] COc1cccc(N2CCN(c3ncccn3)CC2)c1
[20] Cc1ccnc(NS(=O)(=O)c2ccc(NC(=O)c3ccc(C)o3)cc2)n1
[21] CCOC(=O)CC1(NC(=O)C2CCC(=O)N(Cc3ccccc3F)C2)CCCCC1 (stereo not given)
[22] NNC(=O)CNC(=O)c1ccc(F)cc1
[23] O=c1nc2sc3ccccc3n2c(=O)n1-c1ccc(Cl)cc1
[24] CCn1c(C)nc2cc(S(=O)(=O)C(F)F)ccc21
Assay by compound,17,18,19,20,21,22,23,24
Bfl-1 A1 inh,0.3,0.6,-1.0,0.7,0.5,0.2,0.9,0.5
Beta cell apopt,.,0,1,10,-5,2,8,-2
Calb FLC,-4,4,14,6,-5,2,-4,-12
RanGTP-Imp inh,-0.5,6.3,8.6,2.8,2.8,7.2,2.0,4.5
LANA-H2A inh,5.8,-0.1,0.2,5.2,-3.1,0.8,-14,-3.3
Vif A3G,-5%,-7%,3%,.,.,-1%,-4%,1%
T cruzi repl,2,-1,-19,-1,-14,4,38,-21
MLL AF4-AF9 inh,.,-0.6,.,.,-10.0,-7.9,-6.2,.

[25] Cc1ccc(OCc2ccc(C(=O)O)o2)cc1C
[26] O=C(NCCc1cnn(-c2ccccc2)c1)c1cc(COc2c(F)cccc2F)on1
[27] Cc1noc(C)c1S(=O)(=O)N(CCc1ccccc1)Cc1ccccc1
[28] c1ccc2c(c1)oc1c(Nc3ccc(CN4CCOCC4)cc3)ncnc12
[29] Cc1nnc(SCC(=O)N2CCN(c3cccc(Cl)c3)CC2)n1C1CC1
[30] CNC(=S)N/N=C/c1c(C(=O)OC)cnn1-c1ccc(F)cc1F
[31] O=C(CSc1ccc(F)cc1)Nc1ccc2c(c1)C(=O)NC2=O
[32] COc1cccc(-c2cc(C(=O)NC3CCCC3)no2)c1
Assay by compound,25,26,27,28,29,30,31,32
Bfl-1 A1 inh,-5.7,0.5,-0.6,-1.3,-0.2,0.8,-0.1,-0.2
Beta cell apopt,-1,9,-7,17,0,-2,-4,0
Calb FLC,-2,38,4,-42,.,11,-4,-23
RanGTP-Imp inh,1.3,-1.0,5.3,-4.2,.,-1.9,1.8,-2.9
LANA-H2A inh,4.3,-3.2,-1.6,-7.2,-6.4,0.6,0.0,-2.1
Vif A3G,-1%,-6%,0%,?,0%,-7%,.,-2%
T cruzi repl,-12,-63,16,17,.,-25,-43,21
MLL AF4-AF9 inh,1.6,-6.3,.,.,1.9,0.1,-5.5,.

[33] CC(=O)NNC(=O)c1cc2sccc2s1
[34] C=CCOc1ccccc1/C=N/NC(=O)c1ccc(Cl)cc1Cl
[35] CCCC(O)(c1ccc(Cl)cc1)C(CN1CCOCC1)c1ccccc1 (stereo not given)
[36] CC(=O)c1ccc(NC(=O)CSc2nc3nc(C)cc(C)n3n2)cc1
[37] COC(=O)[C@H](CCSC)NC(=O)Nc1ccc(OC)cc1
[38] CCOC(=O)c1ccc(NC(=O)c2nc[nH]c2C(=O)NC2CCN(C(=O)OC(C)(C)C)CC2)cc1
[39] CCOc1ccc(Br)cc1S(=O)(=O)N1CCSC1
[40] Cc1ccc(C(=O)NCCc2n[nH]c(=S)n2C)cc1
Assay by compound,33,34,35,36,37,38,39,40
Bfl-1 A1 inh,0.4,0.2,.,-0.4,-0.2,-0.4,-0.3,0.7
Beta cell apopt,-5,1,.,3,2,2,.,2
Calb FLC,-6,?,0,-5,1,4,-4,-21
RanGTP-Imp inh,2.7,1.1,-3.3,2.1,7.5,-4.4,-0.9,0.3
LANA-H2A inh,-1.5,11,.,0.5,1.2,3.7,-8.2,-9.0
Vif A3G,.,0%,3%,-4%,-11%,.,.,13%
T cruzi repl,4,-4,-32,-12,-2,-5,1,-10
MLL AF4-AF9 inh,-1.8,.,4.1,-3.8,.,-8.8,7.2,-3.2

[41] C/C(=C/C#N)Nc1ccc(C)cc1
[42] O=C(N/N=C/c1c(F)c(F)c(F)c(F)c1F)c1ccc(Cn2cc(Br)cn2)o1
[43] CN1CCN(C(=O)/C=C/c2ccc(C#N)cc2)CC1
[44] O=C(NCCc1ccc(Cl)cc1)c1ccc2nc[nH]c2c1
[45] C/C(=N\Nc1c(Cl)c(Cl)nc(C(=O)O)c1Cl)c1ccc(O)cc1
[46] Cc1ccc(C(=O)O)cc1S(=O)(=O)NCC1CCCO1 (stereo not given)
[47] O=C(COC(=O)c1ccco1)Nc1cc(S(=O)(=O)N2CCOCC2)ccc1Cl
[48] COc1ccccc1N1CCN(C(c2cccs2)C(C)NC(=O)C(=O)N2CCOCC2)CC1 (stereo not given)
Assay by compound,41,42,43,44,45,46,47,48
Bfl-1 A1 inh,0.4,0.8,0.2,-0.2,0.1,0.3,0.2,1.2
Beta cell apopt,-5,-1,-4,-11,4,3,-3,1
Calb FLC,12,?,-2,4,2,6,.,-4
RanGTP-Imp inh,-3.6,-1.4,-0.3,-0.6,3.5,1.2,.,4.8
LANA-H2A inh,-0.2,7.2,4.1,-0.9,-4.8,3.8,-2.3,-3.5
Vif A3G,29%,.,0%,?,.,8%,-16%,.
T cruzi repl,2,-4,3,-6,.,-16,.,-10
MLL AF4-AF9 inh,0.1,0.4,-1.1,-0.4,-9.5,.,10,0.8

[49] CC1CCCC(NC(=O)COC(=O)c2ccccc2NC(=O)c2ccco2)C1C (stereo not given)
[50] CCn1c(/C=C/c2ccccc2[N+](=O)[O-])nc2ccccc2c1=O
[51] COC(=O)c1ccc(NC(=O)C2CCCCC2C(=O)O)cc1 (stereo not given)
[52] Cc1nn(C)cc1C(=O)Nc1cc(Oc2ccc(Cl)cc2)cc([N+](=O)[O-])c1
[53] Cc1ccccc1NC(=O)c1ccccc1NC(=O)Cc1cccc2ccccc12
[54] Cn1cnc(S(=O)(=O)NC2CCN(Cc3c(F)cccc3Cl)CC2)c1
[55] CC(C)C(c1nnnn1C1CCCC1)N1CCC(C(N)=O)CC1 (stereo not given)
[56] Nc1nccc(-c2nn(-c3ccc(Cl)cc3)ccc2=O)n1
Assay by compound,49,50,51,52,53,54,55,56
Bfl-1 A1 inh,1.4,1.1,0.1,-0.1,0.5,-0.1,-0.4,0.3
Beta cell apopt,.,-5,0,5,0,3,-2,-3
Calb FLC,-6,17,-6,3,10,5,-16,18
RanGTP-Imp inh,-1.5,2.9,0.9,-8.8,4.0,0.9,1.2,1.2
LANA-H2A inh,0.2,4.8,4.6,8.9,2.6,5.0,-3.0,5.8
Vif A3G,3%,-3%,-5%,-3%,31%,-5%,2%,-9%
T cruzi repl,-12,-3,-8,36,23,-13,0,-17
MLL AF4-AF9 inh,.,3.4,.,-0.9,1.4,-1.7,-0.5,-0.9

[57] CCOC(=O)c1ccccc1NC(=O)COC(=O)CSc1ccccc1
[58] CCCCn1c(N)c(N(CCOC)C(=O)C2CCN(S(=O)(=O)c3ccc(Cl)cc3)CC2)c(=O)[nH]c1=O
[59] CCOC(=O)N1CCN(C(=O)N2CCOCC2)CC1
[60] Cc1ccc(-n2c(SCC(N)=O)nnc2-c2ccccn2)cc1C
Assay by compound,57,58,59,60
Bfl-1 A1 inh,-0.2,1.0,1.2,0.9
Beta cell apopt,-2,-4,2,4
Calb FLC,-4,-1,0,2
RanGTP-Imp inh,1.1,0.9,-6.0,-0.7
LANA-H2A inh,3.9,-0.8,0.0,1.4
Vif A3G,9%,-8%,30%,0%
T cruzi repl,-9,-16,8,1
MLL AF4-AF9 inh,-7.6,-4.1,.,.
